Screening data (PubChem BioAssay)
Mtb betalactam – beta-lactam sensitization of Mtb H37Rv; M. tuberculosis H37Rv growth with meropenem, percent inhibition; hits of this screen are not shown here; AID 434955; actives 0.27% (n = 330,000); inhibition, % at 25 µM;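 active = about 74% or more and at least 40 points above the plate without the antibiotic, then above 30% in a dose series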;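 note: growth measured after seven days incubation then overnight dye step; 0% = bacteria only wells and 100% = bacteria with antibiotic; twin plates without the antibiotic show which effects depend on it; some results filed as inactive read as strong as hits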
Arbovirus inh – blocks arbovirus infection; actives 0.37% (n = 200,000); arbovirus infection cell-based antiviral screen; inhibition, % at 10 µM;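 active = inhibition from about 30%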;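 note: bluetongue infection of BSR cells; cell survival read as ATP light after 72 h; 0% = infected wells without compound and 100% = uninfected wells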
YopH inh – YopH (Yersinia) phosphatase inhibition | fluorescence Ex485/Em525 | inhibition, %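 (about 10 µM by stock and volumes)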 | actives 0.16% (n = 140,000);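 active = inhibition of 50% or more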;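 note: controls were vehicle for no effect and minimum signal wells for full effect; inactives centre near -20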
RecA splice inh – Mtb RecA intein splicing inhibition; inhibition, %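 (about 9 µM by stock and volumes)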; actives 0.75% (n = 290,000); P9WHJ3; cell-free RecA intein splicing, fluorescence; in the data active = inhibition above about 30%;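 note: 0% = vehicle wells and 100% = reference inhibitor control wells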
Target sequence (P9WHJ3 whole entry, looked up, canonical isoform): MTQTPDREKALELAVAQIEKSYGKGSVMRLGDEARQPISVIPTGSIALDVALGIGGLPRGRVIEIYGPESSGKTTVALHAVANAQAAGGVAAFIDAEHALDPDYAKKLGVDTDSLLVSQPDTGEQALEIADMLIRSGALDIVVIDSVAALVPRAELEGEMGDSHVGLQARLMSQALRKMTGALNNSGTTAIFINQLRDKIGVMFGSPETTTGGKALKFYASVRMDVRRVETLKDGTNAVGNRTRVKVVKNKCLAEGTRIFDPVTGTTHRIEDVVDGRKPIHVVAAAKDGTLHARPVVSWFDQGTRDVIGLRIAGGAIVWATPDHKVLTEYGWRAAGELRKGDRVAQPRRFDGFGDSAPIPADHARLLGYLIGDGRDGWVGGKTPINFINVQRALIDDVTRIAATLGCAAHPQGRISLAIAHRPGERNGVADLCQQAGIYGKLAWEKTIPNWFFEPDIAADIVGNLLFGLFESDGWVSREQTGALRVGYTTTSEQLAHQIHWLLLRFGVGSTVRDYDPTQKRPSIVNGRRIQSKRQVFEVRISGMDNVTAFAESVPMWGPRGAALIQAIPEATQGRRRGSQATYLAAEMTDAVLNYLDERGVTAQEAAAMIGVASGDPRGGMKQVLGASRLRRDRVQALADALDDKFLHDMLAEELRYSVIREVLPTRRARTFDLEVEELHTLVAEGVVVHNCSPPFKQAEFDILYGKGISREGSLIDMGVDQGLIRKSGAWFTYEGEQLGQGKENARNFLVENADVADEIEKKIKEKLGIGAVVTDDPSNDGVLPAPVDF
Mtb H37Rv – M. tuberculosis H37Rv growth inhibitors, H37Rv strain (AID 1626). M. tuberculosis H37Rv growth inhibition; higher % means a stronger effect. inhibition, % at 10 µM, or IC50 in µM where a hit was titrated. actives 0.95% (n = 220,000);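 active = confirmed in a dose series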;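 note: bacteria incubated seven days before Alamar blue readout; 0% = bacteria only wells and 100% = bacteria with antibiotic wells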
Arbovirus inh repeat – recorded beside Arbovirus inh, whose call it bears; inhibition, %; measured here: 10K subset replicate screen; many hits read low in the repeat;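 first of two repeat runs on a subset; 0% = infected and 100% = uninfected wells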
Numbers without * were called inactive; nt = no result given.

SMILES	Mtb betalactam	Arbovirus inh	YopH inh	RecA splice inh	Mtb H37Rv	others
CCOC(=O)C1=C(C)N(c2ccccc2)C(=O)C1CC(=O)O (stereo not given)	-4	6	-37	0.3	0%
COc1ccc(C(=O)C2CCCN(C(=O)CCC3=NNC(=O)CC3)C2)c(C)c1 (stereo not given)	2	11	nt	-1.9	-12%
CCS(=O)(=O)c1nc(S(=O)(=O)c2ccc(Cl)cc2)c(N2CCOCC2)s1	2	nt	nt	-8.4	nt
CC(=O)CCc1oc2ccc(NC(C)=O)cc2c1-c1ccc(C)o1	2	0	-35	-3.1	-17%
O=C(NCc1cccnc1)c1ccc(-c2cc3ccccc3oc2=O)cc1	1	-4	nt	-0.1	8%
COc1ccc(NS(=O)(=O)c2cc(NC(=O)[C@@H](NC(N)=O)C(C)C)ccc2C)cc1	-3	nt	nt	3.5	-7%
O=C(CC(c1ccccc1)c1cc(Br)ccc1O)NCCCN1CCOCC1 (stereo not given)	4	nt	nt	-1.2	nt
COc1cccc(NC(=O)c2ccc(NC(=O)C(C)(C)C)cc2)c1	-2	-7	-29	1.7	-4%
CCC(=O)Oc1ccc(C(=O)Nc2ccccc2C(=O)NCC(C)C)cc1	5	-2	nt	5.0	11%
COc1ccc(NC(=O)c2cc(S(=O)(=O)N3CCc4ccccc43)cn2C)cc1	2	nt	nt	-0.2	nt
O=C(COC(=O)c1cccc2ccccc12)Nc1ncc(C(F)(F)F)cc1Cl	-1	15	-18	3.7	-1%
COc1ccc(-c2ccc(CCC(=O)O)o2)cc1	-1	0	nt	0.7	-7%
NS(=O)(=O)c1cc(C(=O)NCCc2ccccn2)ccc1Cl	-2	nt	nt	1.1	-5%
O=C(CCl)N=c1sccn1Cc1cccc2ccccc12	nt	31*	nt	13	nt
O=C(NCCc1ccccc1)C1CCN(C(=O)Nc2ccccc2)CC1	-6	nt	nt	1.0	nt
Cc1cc(C)nc(NC(=O)c2c(F)c(F)c(F)c(C(=O)Nc3cc(C)cc(C)n3)c2F)c1	-5	nt	nt	25	nt
O=c1c2ccccc2nc(COc2ccccc2)n1/N=C/c1ccc(O)c(O)c1	1	nt	nt	2.8	-2%
COc1ccc(CNC(=O)COC(=O)CC2CC3CCC2C3)cc1OC (stereo not given)	4	8	-15	2.6	-4%
Cc1ccc2[nH]c(=O)c(CN(CCCN(C)C)C(=S)NCCc3ccccc3)cc2c1	-4	-39	nt	-2.6	-1%
COc1ccc(/C=N/NC(=O)c2nc(-c3ccccc3)n(-c3ccccc3)n2)cc1	-5	-17	-61	5.4	4%
COc1ccc(-c2noc(CCCC(=O)N3CCOCC3)n2)cc1	-6	9	nt	-1.6	5%
CCOc1ccc(NC(=O)C2CCCN(S(=O)(=O)c3cccc4nsnc34)C2)cc1 (stereo not given)	-5	-1	-19	2.4	4%
CCC1=Nc2cc(C(=O)NCCN3CCOCC3)ccc2Sc2ccccc21	2	nt	nt	5.0	nt
Cc1ccc(Nc2nc3ccccc3c(=O)s2)cc1C	-8	2	-19	-0.5	-2%
Cc1occc1C(=O)NNC(=O)C(c1ccccc1)c1ccccc1	-3	5	-19	1.2	2%

Further compounds follow.
SMILES	Mtb betalactam	Arbovirus inh	YopH inh	RecA splice inh	Mtb H37Rv	others
COc1ccc(CCNC(=O)C2CCC(=O)N2Cc2ccccc2Cl)cc1OC (stereo not given)	-1	nt	nt	-0.1	nt
CCOc1ccc(Nc2nc3ccccc3n2C)cc1	2	nt	nt	-0.5	nt
O=C(O)CCC(NS(=O)(=O)c1ccc(N2CCCC2=O)cc1)C(=O)O (stereo not given)	2	5	-34	-0.3	-1%
CCCCCCOC(=O)Cc1c(C)nc(N)[nH]c1=O	-3	nt	nt	-0.2	-2%
O=S(=O)(NCCCO)c1ccc2c(c1)Cc1cc(S(=O)(=O)NCCCO)ccc1-2	3	-1	-42	-1.2	-7%
Cc1ccccc1OC(C)C(=O)N1CCC(Cc2ccccc2)CC1 (stereo not given)	12	nt	nt	15	nt
C/C(=N\NC(=O)c1c(Cl)cnn1C)c1cccc(NC(=O)C(C)C)c1	-6	2	-20	-1.7	9%
CCCN(CC1CC1)c1nc(N)c2c(N)nc(OC)cc2c1C#N	95	-10	10	2.4	66%
CCN(C(=O)COC(=O)c1ccccc1Nc1cccc(C)c1C)C1CCS(=O)(=O)C1 (stereo not given)	-6	3	-30	4.7	-8%
CN(C)C(=O)CSc1ncnc2scc(-c3ccccc3)c12	-3	17	nt	-0.5	-11%
O=C(CN(C(=O)CCC(=O)Nc1ccccn1)c1ccc(F)cc1)NCc1ccco1	-4	nt	nt	-0.1	nt
CN(C)C(=S)Nc1ccc(Br)cc1Cl	11	nt	nt	1.6	-13%
COc1ccc(S(=O)(=O)Nc2cc(Cl)ccc2OC)cc1	-10	-4	-12	-0.7	-14%	Arbovirus inh repeat=4
CCOC(=O)C1CCN(S(=O)(=O)c2ccc3c(c2)N(C(C)=O)CCO3)CC1	-7	nt	nt	-2.9	nt
CC(NS(=O)(=O)c1ccc(CCC(=O)N2CCN(C)CC2)cc1)c1ccccc1 (stereo not given)	-1	1	-35	0.4	-3%
CCC(C)C(=O)Nc1cc(Cl)ccc1C(=O)O (stereo not given)	1	0	nt	1.7	2%
CCc1cc2ccccc2nc1SCC(=O)Nc1cc(OC)c(OC)cc1C(=O)O	-1	26	-5	0.2	2%
CN(C(=O)c1cn2ccccc2n1)c1c(N)n(Cc2ccccc2)c(=O)[nH]c1=O	1	nt	nt	3.2	nt
O=C(OCc1cc(=O)n2cc(Br)ccc2n1)c1ccc(Cl)c(S(=O)(=O)NCc2ccccc2)c1	-5	-4	-25	-2.4	4%
CCCCc1ccc(-n2nnnc2SCC(=O)Nc2cc(OC)c([N+](=O)[O-])cc2C)cc1	-6	-4	-3	0.7	3%
CCC(=O)Nc1ccc2c(c1)nc1n2CCN(C2CCCCC2)C1	-4	1	nt	-0.4	-3%
CCc1ccc(C(=O)NNC(=O)CC2OC(=O)c3ccccc32)cc1 (stereo not given)	-13	nt	nt	14	nt
Cc1ccc(Nc2nc(CSc3nnc(-c4ccccc4C)n3C)cs2)cc1	18	20	-21	6.1	9%
CCOc1ccc2c(c1)OC(c1ccccc1)(C(F)(F)F)NC2=O (stereo not given)	1	-5	-14	1.4	5%
CCc1cc2c(=O)n(Cc3ccco3)c(SCC(=O)N(C)C3CCS(=O)(=O)C3)nc2s1 (stereo not given)	2	10	nt	3.4	2%

Remaining list, next part
SMILES	Mtb betalactam	Arbovirus inh	YopH inh	RecA splice inh	Mtb H37Rv	others
Cc1cccc(Oc2ncnc3oc(-c4ccccc4)cc23)c1C	-3	7	-34	0.5	4%
O=C(c1ccc(=O)n(Cc2ccccc2)n1)N1CCN(C/C=C/c2ccccc2)CC1	0	6	-44	2.6	-5%
Nc1ccc(N2CCCCC2)c(Cl)c1	-2	-3	nt	-2.0	-18%
O=c1c2ccccc2nc(/C=C/c2ccc(O)cc2)n1-c1ccc(O)cc1	2	nt	nt	-5.8	nt
COc1cc(CC(=O)N(C)CC(=O)Nc2ccc(Cl)c(C(F)(F)F)c2)cc(OC)c1OC	2	nt	nt	0.4	nt
Cc1cccc(OCC(=O)N(Cc2ccco2)C2CCS(=O)(=O)C2)c1C (stereo not given)	-4	nt	nt	-0.1	nt
CCC[n+]1cn(/C(C(=S)Nc2cccc(Cl)c2C)=C(/[O-])c2ccc(OC)c(OC)c2)c2ccccc21	2	0	nt	0.6	7%
CCc1ccc(CN(C)Cc2nc(Cc3ccccc3)no2)nc1	60	3	nt	1.6	10%
OCCN1CN=C(Nc2nc3ccccc3o2)NC1	-7	8	-35	-0.9	6%
Fc1ccccc1CSc1nncn1NC/C=C/c1ccccc1	-1	-13	-16	2.7	1%
Cc1cccc(-n2cc(CN(C)Cc3nccn3C)c(-c3cccc(F)c3)n2)c1	99	-15	nt	10	7.4µM*
COc1ccc(N2C(=NC(C)=O)SC3CS(=O)(=O)CC32)cc1OC (stereo not given)	-7	-3	-28	2.2	-4%
Oc1ccccc1-c1cc(C(F)(F)C(F)F)[nH]n1	-5	16	-4	-1.3	-1%
CCOC(=O)N1CCN(C(=O)C2CC(c3ccccc3OC)=NO2)CC1 (stereo not given)	-5	8	-23	-1.2	-3%
CC1CCCN(S(=O)(=O)c2ccc(NC(=O)c3cccc(-n4cnnn4)c3)cc2)C1 (stereo not given)	-26	-10	-5	3.0	1%
Cc1cc(C)cc(N2CCN(C(=O)N3CCOCC3)CC2)c1	-7	18	-32	4.7	-1%
Cn1c(=O)c2c(nc(SCC(=O)N3CCOCC3)n2C)n(C)c1=O	2	nt	nt	-0.9	nt
C=CCOn1c(=O)c(-c2ccc(OCC)cc2)[n+]([O-])c2ccccc21	3	nt	nt	-2.0	nt
Cc1cccc(C(C)C)c1NC(=O)C(C)OC(=O)Cc1n[nH]c(=O)c2ccccc12 (stereo not given)	0	nt	nt	0.1	nt
O=C(N/N=C/c1ccc(O)cc1)/C(=C/c1ccccc1)CCO	0	5	3	-2.8	-1%
CCN=C(NCC)SC1CC(=O)N(c2ccccc2)C1=O (stereo not given)	-16	1	-44	1.7	-13%
CCn1c(O)c(C=NCCN2CCOCC2)c(=O)n(CC)c1=S	-1	nt	nt	2.1	-6%
Cc1nnsc1C(=O)N/N=C/c1ccccc1	-1	-3	-37	-0.4	2%
COC(=O)c1ccsc1NC(=O)c1ccco1	-7	nt	nt	-4.9	nt
COC(=O)c1c(NC(=O)CN2C(=O)c3ccccc3C2=O)sc(Cc2ccc3c(c2)OCO3)c1C	1	5	-29	-0.7	1%

Next section
SMILES	Mtb betalactam	Arbovirus inh	YopH inh	RecA splice inh	Mtb H37Rv	others
CCc1ccc(NC(=O)c2sc3nc(C)nc(N4CCN(c5ccccn5)CC4)c3c2C)cc1	91	nt	nt	2.1	nt
O=C(c1ccccc1)N1CCN(C(=S)NCc2ccco2)CC1	-14	7	nt	1.8	4%
COc1ccc(S(=O)(=O)NC(C)C(=O)Nc2ccccc2)cc1Cl (stereo not given)	-9	nt	nt	4.1	nt
C=C1c2cc3c(cc2NC(=S)N1Cc1ccccc1)OCO3	64	nt	nt	1.0	59%
O=C(CN(C(=O)CCC(=O)Nc1ccccn1)c1cccc(F)c1)NCc1ccco1	-8	nt	nt	-0.6	nt
CCN(CC)CCCNC(=O)CCn1nc(-c2ccc(Cl)cc2)ccc1=O	-9	nt	nt	-1.8	nt
CCOC(=O)n1c(O)c(N=NC(N)=S)c2cc(C)ccc21	-5	nt	nt	-0.7	-7%
O=C(NCc1ccccc1)C1Cc2ccccc2CN1C(=O)c1ccco1 (stereo not given)	-4	-6	nt	1.7	-2%
CCOc1cc(/C=N/NC(=O)Cc2ccc(C(F)(F)F)cc2[N+](=O)[O-])ccc1O	5	-28	-21	-2.1	-10%
COCC(=O)Nc1nc2ccc(S(C)(=O)=O)cc2s1	-6	3	-50	-1.2	-3%
COc1ccc(CN2CCNC(=O)C2CC(=O)N2CCCCO2)c(OC)c1 (stereo not given)	1	4	nt	nt	-7%
CCc1ccc(NC(=O)[C@H](C)NC(=O)C2CCN(C(=O)[C@@H](N)C(C)C)CC2)cc1	-3	nt	nt	1.0	nt
CN(Cc1ccccc1)C(=O)COC(=O)Cn1cnc2ccccc21	-3	3	nt	-0.1	1%
O=C(Nc1cccnc1)Nc1ccc(Cl)cc1Cl	-5	8	nt	5.2	4%
CSc1ccccc1C(=O)C1CCCN(C(=O)c2cc(C(C)C)no2)C1 (stereo not given)	19	8	nt	-0.3	-13%
O=C(Nc1ccc(Cl)cn1)c1ccc2c(Cl)c3c(nc2c1)CCC3	-2	nt	nt	-1.4	10%
CCOCCn1ccc2c(OCC(=O)NCCc3ccc(OC)c(OC)c3)cccc2c1=O	-4	nt	nt	0.4	nt
O=C(CCn1cnnn1)Nc1ccc(Cl)cc1Cl	3	1	nt	-4.6	0%
CCOC(=O)c1sc(S(C)=O)c2c1CCc1conc1-2 (stereo not given)	55	nt	nt	3.3	-9%
Cc1c(Nc2nc(-c3ccc(Cl)cc3)cs2)c(=O)n(-c2ccccc2)n1C	-2	-2	-22	-0.1	nt
COc1ccc(OCC(=O)Nc2c3c(nn2C(C)(C)C)CS(=O)(=O)C3)cc1	8	nt	nt	-2.2	nt

Quoted from the listing (seven entries):
SMILES	Mtb betalactam	Arbovirus inh	YopH inh	RecA splice inh	Mtb H37Rv	others
CCc1ccc(NC(=O)c2sc3nc(C)nc(N4CCN(c5ccccn5)CC4)c3c2C)cc1	91	nt	nt	2.1	nt
O=C(c1ccccc1)N1CCN(C(=S)NCc2ccco2)CC1	-14	7	nt	1.8	4%
COc1ccc(S(=O)(=O)NC(C)C(=O)Nc2ccccc2)cc1Cl (stereo not given)	-9	nt	nt	4.1	nt
C=C1c2cc3c(cc2NC(=S)N1Cc1ccccc1)OCO3	64	nt	nt	1.0	59%
O=C(CN(C(=O)CCC(=O)Nc1ccccn1)c1cccc(F)c1)NCc1ccco1	-8	nt	nt	-0.6	nt
CCN(CC)CCCNC(=O)CCn1nc(-c2ccc(Cl)cc2)ccc1=O	-9	nt	nt	-1.8	nt
CCOC(=O)n1c(O)c(N=NC(N)=S)c2cc(C)ccc21	-5	nt	nt	-0.7	-7%

A portion of the library; rates above refer to the full screens.
